MARV entry inh = Marburg virus entry inhibition. actives 6.5% (n = 18,000). AID 720532. Marburg virus pseudotype entry/binding inhibition, cell-based; control for the full effect not named in the record; many of its hits are not listed in these tables. Potency, µM (titrated, usually from 49.2 µM), for the others: at the top dose activity change, negative = inhibition, usual class: inhibitors; active means well fitted inhibition curve with a large enough effect; inconclusive means small, poorly fitted or top-dose-only effect; inactive means no such curve, though single readings can be large or run the other way; tested in HEK293 cells; also: luciferase read-out
LASV entry inh = Lassa virus entry inhibition | Lassa virus pseudotyped entry inhibition, cell-based qHTS; control for the full effect not named in the record; many of its hits are not listed in these tables | Potency, µM (titrated, usually from 49.2 µM), for the others: at the highest dose activity change, negative = inhibition, hits mostly inhibitors | actives 4.1% (n = 18,000) | AID 720533; active = well fitted inhibition curve with a large enough effect; inconclusive = small, poorly fitted or top-dose-only effect; inactive = no such curve, though single readings can be large or run the other way; tested in HEK293 cells; also: luciferase read-out
* hit, by the source's call; ? = inconclusive; . = no result given; & = joins results of further samples; [ ] = remark or other dose. % is scaled to controls: 0 for no effect and ±100 for the full control effect; potency is read from the fitted curve at half-maximal effect.

Screens in order: MARV entry inh | LASV entry inh
- NCC(O)c1ccc(O)cc1 (stereo not given)
    7%&2% | 3%&2%
- C[C@@H](O)CCC[C@H](O)/C=C/[C@@H]1[C@@H](C/C=C\CCCC(=O)O)[C@@H](O)C[C@H]1O
    2% | -12%
- CCOCC(O)COc1ccc(NC(=O)CC[S+](C)C)cc1 (stereo not given)
    4% | -9%
- COC(=O)C1CCCCN1Cc1ccc2c(c1)CN(C(=O)c1ccc(C)s1)CCO2 (stereo not given)
    ? | -16%
- Cc1noc(C)c1-c1cc(N(C)C)ncn1
    5% | -21%
- CC(=O)Nc1cc(C(=O)N2CCN(c3ccccc3)CC2C)cc2ncn(CCc3ccccn3)c12 (stereo not given)
    -19% | -4%
- CC(CCc1ccc(O)cc1)NCC(O)c1ccc(O)cc1 (stereo not given)
    11% | -8%
- COc1cccc([C@@H](NC(=O)C(F)(F)F)[C@@H]2CCCC=C2c2ccccc2)c1
    ? | 4%[8.59 µM]
- COc1cccc(CC(=O)N2CCc3nc(-c4ccccc4)c4c(c3C2)CO[C@@H](C)C4)c1
    -3%[8.59 µM] | -24%[8.59 µM]
- COC(=O)C1=C(C)N(Cc2ccccc2)C(=O)NC1c1cccc(C(F)(F)F)c1 (stereo not given)
    17%[8.59 µM] | 5%[8.59 µM]
- CO[C@H]1C=CO[C@]2(C)Oc3c(C)c(O)c4c(O)c(c5c(c4c3C2=O)NC2(CCN(CC(C)C)CC2)N=5)=NC(=O)C(C)=CC=C[C@@H](C)[C@@H](O)[C@@H](C)[C@@H](O)[C@@H](C)[C@@H](OC(C)=O)[C@@H]1C
    3%[17.8 µM] | 1%[17.8 µM]
- COC(=O)CC1c2ccccc2C(Cc2ccc(OC)cc2)C(C)N1C(=O)OC (stereo not given)
    ? | 10%[8.59 µM]
- CCN1CCCC1CNCc1cc2c(OC)c(OC)c(OC)cc2nc1N(C)C (stereo not given)
    ? | 3%
- Cc1ccc(S(=O)(=O)NC(=O)O[C@@H]2C(=O)c3cc(Br)ccc3O[C@H]2c2ccc3c(c2)OCO3)cc1
    40% | 44%[activator]
- COCOc1ccc(Br)cc1C(=O)[C@@H]1O[C@@H]1c1cccc(OC)c1
    -17%[8.59 µM] | 12%[8.59 µM]
- CN(C)C(=O)Nc1ccc(-n2nc(C(C)(C)C)oc2=O)c(Cl)c1
    1% | -9%
- CCOC(=O)NN=C1C[C@@H](O)[C@@H](O)[C@@H]2[C@H]3C(=O)N(Cc4ccccc4)C(=O)[C@@H]3CC[C@@H]12
    25%[8.59 µM] | 8%[8.59 µM]
- C=C(CC(=O)OC)C[C@]1(CC(=O)OC)CC2(CC=C(C)C)C(=O)C(C(=O)c3ccccc3)=C(OC(=O)c3ccc(Br)cc3)C(CC=C(C)C)(C1)C2=O (stereo not given in full)
    4%[8.59 µM] | 15%[8.59 µM]
- CSc1ccc(-c2cc3c(c4c2ccn4C)C2CCC3O2)cc1 (stereo not given)
    ? | .
- COC(C)C(O)(C(=O)OC1=CCN2CC[C@H](O)[C@H]12)C(C)C (stereo not given in full)
    ? | ?
- N[C@@H](Cc1ccc(N(CCCl)CCCl)cc1)C(=O)O
    ? | ?
- CNC(=O)C[C@H]1C(=O)N(Cc2ccccc2)C[C@@H]1CSC
    22% | 7%
- C[C@]12CCC3c4ccc(O)cc4CCC3C1CC(O)C2O (stereo not given in full)
    21% | -4%
- c1ccc(-c2[nH]ncc2-c2ccnc(-c3ccc(OCCn4ccnc4)cc3)c2)nc1
    ? | .
- CNC(=O)OCC[N+](C)(C)C
    13% | 1%
- O=C(O)Cc1nn(Cc2ccc(Br)cc2F)c(=O)c2ccccc12
    -2% | -7%
- COc1cc2occc2c2oc(=O)ccc12
    15%&-10% | -10%&4%
- C[C@@]1(C(=O)O)NCCc2cc(O)c(O)cc21
    8.9µM* | -17%
- C[C@H]1/C=C\CC(=O)NCc2cccc(c2)CNC(=O)N[C@H]1c1ccccc1
    -15% | -5%
- COC(=O)[C@H]1Cc2c([nH]c3ccccc23)CN1C(=O)COc1ccc2c(C)cc(=O)oc2c1
    -12% | -12%
- COC(=O)[C@@H](N)CS
    2% | 10%
- N#Cc1cccc(-c2nc(N3CCNCC3)c3ccccc3n2)c1
    16µM* | -1%
- COc1cccc(C(=O)NCc2nc(-c3cccc(NC(=O)c4ccoc4C)c3)oc2C)c1OC
    ? | 18µM*
- Cc1ccc(Sc2cncc3sc(C(N)=O)cc23)cc1
    12% | 48%[activator]
- CCC1(c2ccccc2)C(=O)NC(=O)NC1=O
    6% | -2%
- NCCC[C@H](N)CC(=O)N[C@H]1CNC(=O)[C@@H]([C@@H]2C[C@H](O)N=C(N)N2)NC(=O)/C(=C/NC(N)=O)NC(=O)[C@@H](CO)NC(=O)[C@@H](CO)NC1=O
    -1%[17.8 µM] | 4%[17.8 µM]
- C[C@H]1CCCC=CC2C[C@H](O)C[C@@H]2[C@H](O)C=CC(=O)O1 (stereo not given in full)
    35µM* | ?
- Oc1c(Br)cc(Br)c2cccnc12
    ? | ?
- CCn1nc(C)cc1C(=O)NCCN1Cc2ccccc2OC(c2ccccc2F)C1 (stereo not given)
    ? | ?
- CCOC(=O)[C@H](CCc1ccccc1)N[C@H]1CCCN2CCC[C@@H](C(=O)O)N2C1=O
    -2% | -11%
- COc1cc(C2CC(=O)Oc3cc4c(cc32)OCO4)cc(OC)c1OC (stereo not given)
    -14% | 0%
- CCOP(=S)(OCC)Oc1cc(C)nc(N(CC)CC)n1
    -7% | -9%
- Cc1cnc(C)c(-c2cc(F)cc3c2OC(CNC(=O)Cc2ccccc2C)C3)n1 (stereo not given)
    -32% | -18%
- CNC(=O)[C@@H]1C[C@@H](NCc2cccc(Oc3ccccc3)c2)CN1C(C)C
    10µM* | 3%
- CS(=O)(=O)CCNCc1ccc(-c2ccc3ncnc(Nc4ccc(OCc5ccccc5)c(Cl)c4)c3c2)o1
    ? | .
- O=C(O)c1cc(Oc2ccc([N+](=O)[O-])cc2)cc(Oc2ccc([N+](=O)[O-])cc2)c1
    ? | -15%
- CC(C)CCCC1(C)C=Cc2c(O)c3c(c(CCC(C)C)c2O1)OC12C(CC4CC1C(C)(C)OC2(CCC(C)C(=O)O)C4O)C3=O (stereo not given)
    -20% | -17%
- Cl/C(=C\n1cncn1)c1ccc(Cl)cc1Cl
    2% | 0%
- CCC(CC)(CC(=O)Nc1cccc(/C=C/c2nc(C3CCC3)cs2)c1)C(=O)O
    26% | 2%
- CCOC(=O)C1=C(C)c2ccccc2OC1(C(=O)OCC)C(C)C (stereo not given)
    -10% | -9%
- O=C(c1cnn(-c2nccc(-c3ccccc3C(F)(F)F)n2)c1C1CC1)N1CCN(CCO)CC1
    ? | -12%
- CCCCC/C=C\C/C=C\C/C=C\CCCCC(=O)NCCO
    -10% | -11%
- CSCC[C@H](NC(=O)[C@@H](NC(=O)CNC(=O)[C@H](CC(=O)O)NC(=O)[C@H](CCSC)NC(=O)[C@@H](N)Cc1ccc(O)cc1)[C@@H](C)O)C(=O)N[C@@H](CO)C(=O)N[C@@H](CCC(N)=O)C(=O)N[C@H](C(=O)O)C(C)C
    11% | -14%
- CCN1CCC(CC(=O)Nc2n[nH]c3nc(-c4cccs4)c(Br)cc23)CC1
    ? | .
- CN(C)C(=O)OC1=C(c2ccccc2)Sc2ccccc2-n2cccc21
    -18% | ?
- Cc1ccc2c(c1)CN(CCNC(=O)c1n[nH]c3c1CCCC3)CC(C)O2 (stereo not given)
    -15% | 2%
- Cc1ccc2c(c1)CN(CCNC(=O)c1cc3ccccc3oc1=O)CC(C)O2 (stereo not given)
    -23% | 0%
- C=CCOC(=O)C(C(C)=O)[C@@H](NC(=O)OC)c1ccc(F)cc1 (stereo not given in full)
    20%[8.59 µM] | 12%[8.59 µM]
- Cc1cc(O)c(C)c2c1CC[C@H]1[C@H](C)C(=O)O[C@H]21
    10% | -13%
- COCC(C)N(C(=O)CCl)c1c(C)csc1C (stereo not given)
    34%[activator] | 1%

More compounds.
Screens in order: MARV entry inh | LASV entry inh
- COc1cccc([C@@H]2Oc3ccc(Br)cc3C(=O)[C@H]2OC(=O)Nc2ccc(OC(F)F)cc2)c1
    28% | 53%[activator]
- CC(=O)Oc1cc(C)c(OC(C)=O)c2ccccc12
    ? | ?
- Cc1ccc(NC(=O)c2cccc(N(C)C)c2)cc1NC(=O)c1ccc(O)cc1
    31%&25%&57%[activator] | -21%&6%&-2%
- CC(C)C[C@H](NC(=O)CN(C)C(=O)[C@H](Cc1ccccc1)NC(=O)[C@H](Cc1ccccc1)NC(=O)[C@H](CCC(N)=O)NC(=O)[C@H](CCC(N)=O)NC(=O)[C@@H]1CCCN1C(=O)[C@H](CCCCN)NC(=O)[C@@H]1CCCN1C(=O)[C@@H](N)CCCN=C(N)N)C(=O)N[C@@H](CCS(C)(=O)=O)C(N)=O
    7% | -4%
- NC(N)=NCCNS(=O)(=O)c1cccc2cnccc12
    5%&10% | 15%&-6%
- COc1cc(NS(C)(=O)=O)ccc1Cc1c2ccccc2nc2ccccc12
    2µM* | ?
- CN1CCN(c2c(F)cc3c(=O)c(C(=O)O)cn(CCF)c3c2F)CC1
    5% | -3%
- COc1ccc(COc2cc(-c3cccc(OC)c3)nc3ccc(NC(=O)c4ccc(OC)cc4)cc23)cc1
    ? | ?
- CCOC(=O)N1CCN(Cc2ccc3c(c2)CN(C(=O)c2ccc4ncccc4c2)CCO3)CC1
    -8% | 1%
- CC1(C)CCC[C@@](C)([C@H]2CC[C@]3(C)[C@@H]2[C@H](O)C[C@@H]2[C@@]4(C)CC[C@H](O)C(C)(C)[C@@H]4CC[C@]23C)O1
    25% | 11%
- Cc1c(C(=O)NN2CCOCC2)nn(-c2ccc(Cl)cc2Cl)c1-c1ccc(I)cc1
    ? | ?
- COCCN1CCN(C(=O)c2cnn(-c3nccc(-c4ccco4)n3)c2C2CC2)CC1
    -16% | 1%
- NCC(O)c1cccc(O)c1 (stereo not given)
    16% | -9%
- O=C(Oc1ccccc1)C1O[C@@H]1c1ccccc1 (stereo not given in full)
    -9% | -1%
- C=CCCC1CN(Cc2ccc(OC)cc2)S(=O)(=O)c2c(Oc3ccc(OC)cc3)cccc2O1 (stereo not given)
    -19% | -20%
- Cc1cccc(COC[C@H](Cc2ccccc2)N2CCN(C(=O)c3cccc(Cl)c3)CCC2=O)c1
    ? | ?
- C[C@H]1C(c2cccc(Cl)c2)=NN(c2ccccc2)[C@@H]1CO
    4% | -20%
- CC(CCN1CCCc2nc(C)c(C)cc21)=NOC[C@@H](O)[C@H]1O[C@@H]2OC(C)(C)O[C@H]2[C@@H]1O
    -8%[8.59 µM] | 35%[activator][8.59 µM]
- COc1cc(CN2CCC3(CC2)CC3C(=O)Nc2ccc3sc(C)nc3c2)ccc1F (stereo not given)
    ? | -23%
- COc1ccc(C2=N[C@H](c3ccccc3)CO2)cc1
    7% | 0%

Some of the entries so far, with tabs.
compound	MARV entry inh	LASV entry inh
Cc1c(C(=O)NN2CCOCC2)nn(-c2ccc(Cl)cc2Cl)c1-c1ccc(I)cc1	?	?
COCCN1CCN(C(=O)c2cnn(-c3nccc(-c4ccco4)n3)c2C2CC2)CC1	-16%	1%
NCC(O)c1cccc(O)c1 (stereo not given)	16%	-9%
O=C(Oc1ccccc1)C1O[C@@H]1c1ccccc1 (stereo not given in full)	-9%	-1%
C=CCCC1CN(Cc2ccc(OC)cc2)S(=O)(=O)c2c(Oc3ccc(OC)cc3)cccc2O1 (stereo not given)	-19%	-20%
Cc1cccc(COC[C@H](Cc2ccccc2)N2CCN(C(=O)c3cccc(Cl)c3)CCC2=O)c1	?	?
C[C@H]1C(c2cccc(Cl)c2)=NN(c2ccccc2)[C@@H]1CO	4%	-20%

(list continues)
Screens in order: MARV entry inh | LASV entry inh
- Oc1cc2c(cc1O)[C@H](c1ccccc1)CNCC2
    3% | -18%
- CCCCCCCCCCCCCCCC(=O)C1=C(O)C(CO)OC1=O (stereo not given)
    -5% | -15%
- CC(CCC(=O)O)C1CCC2C3C(O)C[C@@H]4CC(O)CC[C@@]4(C)C3CC(O)[C@]12C (stereo not given in full)
    1% | -7%
- N#C/C(=C\c1ccc(O)c(O)c1)C(=O)c1ccc(O)c(O)c1
    -4% | -11%
- CCN1C(C)=C(C(=O)OC(C)C)C(c2ccccc2Cl)C2=C1COC2=O (stereo not given)
    -16% | -5%
- C/C(=C\C=C/[C@@H](C)C(=O)O)[C@H]1CN[C@H](C(=O)O)[C@@H]1CC(=O)O
    4% | 9%
- O=C1c2ccccc2C(=O)C1C(=O)C(c1ccccc1)c1ccccc1
    -4% | -23%
- CN1CCCC(CC2c3ccccc3Sc3ccccc32)C1 (stereo not given)
    7.9µM* | ?
- Cc1cc(O)cc(O)c1C(=O)OC1(C)C(=O)C=C2C=C(C=CCO)OC=C2C1=O (stereo not given)
    52%[activator][8.59 µM] | 10%[8.59 µM]
- CC(C)(C)[C@]1(O)C[C@@H]2OC(=O)CC23C(=O)O[C@@H]2OC(=O)[C@H](O)C231 (stereo not given in full)
    9% | -13%
- CC(C)CC1C(=O)N(Cc2cn(CCC3OCCCO3)nn2)CCS(=O)(=O)N1Cc1ccc(-c2ccncc2)cc1 (stereo not given)
    -17% | -30%
- Cc1[nH]c2ccc(Cl)cc2c1C1=CCNCC1
    ? | -24%

Assay outcomes as filed in PubChem BioAssay.
